ASAP1 GAP inh: ASAP1 ArfGAP inhibition. inhibition, % at 16.5 µM. Q9ULH1. hit rate 0.19% among 360,000. ASAP1-stimulated ARF1 GTP hydrolysis, GDP FP detection; in the data active means inhibition above about 25%;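 further: 0% = vehicle with enzyme and substrate and 100% = no enzyme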
Target sequence (Q9ULH1 325-724 limits assumed): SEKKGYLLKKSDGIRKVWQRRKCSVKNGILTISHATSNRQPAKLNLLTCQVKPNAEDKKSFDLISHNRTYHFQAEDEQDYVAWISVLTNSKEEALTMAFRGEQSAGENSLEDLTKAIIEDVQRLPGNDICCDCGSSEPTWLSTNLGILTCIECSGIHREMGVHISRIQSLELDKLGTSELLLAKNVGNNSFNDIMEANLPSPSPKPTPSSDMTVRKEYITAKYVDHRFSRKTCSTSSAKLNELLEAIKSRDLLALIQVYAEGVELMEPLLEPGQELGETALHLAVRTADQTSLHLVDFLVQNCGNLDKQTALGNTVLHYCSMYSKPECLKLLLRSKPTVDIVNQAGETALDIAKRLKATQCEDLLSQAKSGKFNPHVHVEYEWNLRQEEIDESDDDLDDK
ARFGAP1 inh: rat ARFGAP1 inhibition. AID 651572. inhibition, % at 16.5 µM. Q62848. hit rate 0.26% among 360,000. Arfgap1-stimulated ARF1 GTP hydrolysis, GDP FP detection;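 active means inhibition above a per-plate limit, mean inhibition of low control wells plus 3 SD, cut at about 25% in these data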;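 further: 0% = DMSO wells with enzyme and 100% = wells lacking Arfgap1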
Target sequence (Q62848 1-136 limits assumed): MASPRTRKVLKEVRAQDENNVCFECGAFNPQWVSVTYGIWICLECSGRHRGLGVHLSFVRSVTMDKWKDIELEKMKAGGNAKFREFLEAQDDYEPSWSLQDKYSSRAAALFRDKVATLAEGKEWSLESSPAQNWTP
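Material: truncated rat Arfgap1 GAP domain; Incubation: compound-enzyme preincubation 20 min, reaction 120 min, detection 60 min, 25 °C; Read-out: percent inhibition of Arfgap1-stimulated GTP hydrolysis; Technique: FP, GDP Alexa 633 tracer displaced from anti-GDP antibody, 620/688 nm; Controls: No-Arfgap1 wells (100%) versus DMSO full-reaction wells (0%); Replication: single well per compound.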
mABHD4 FP: inhibitors of mouse ABHD4 | Q8VD66 | purified mABHD4, FP-Rh probe fluorescence polarization | inhibition, % at 8.92 µM | hit rate 0.54% among 370,000 | AID 720543;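 active means inhibition exceeding the mean over every tested compound plus 3 SD, cut at about 30% in these data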;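 further: 0% = plate median of compound wells and 100% = S159A mutant with DMSO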
Target sequence (Q8VD66 whole entry, looked up): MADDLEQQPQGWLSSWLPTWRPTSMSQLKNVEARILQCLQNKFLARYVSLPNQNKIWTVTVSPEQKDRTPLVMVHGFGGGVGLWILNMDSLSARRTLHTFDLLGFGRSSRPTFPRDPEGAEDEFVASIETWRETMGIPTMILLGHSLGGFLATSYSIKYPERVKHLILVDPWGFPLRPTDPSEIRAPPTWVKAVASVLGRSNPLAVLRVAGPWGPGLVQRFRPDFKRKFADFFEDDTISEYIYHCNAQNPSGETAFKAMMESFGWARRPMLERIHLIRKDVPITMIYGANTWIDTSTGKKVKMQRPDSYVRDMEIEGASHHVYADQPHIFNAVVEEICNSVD
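Test system: mABHD4 protein | Buffer or medium: HEPES pH 7.0 buffer, 150 mM NaCl, 0.01% Pluronic F-127 | Probe or stimulus: FP-Rh fluorescent activity-based probe, added after compound pre-incubation | Timing: Pre-incubation 45 min, probe exposure 60 min, at 25 °C | Technique: Fluorescence polarization, excitation 525 nm, emission 598 nm, BODIPY TMR filters | Repeats: Single well per compound (singlicate)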
SMARCA2 act: SMARCA2 function activation, primary screen; MG213 cells, MMTV-luciferase reporter, dexamethasone, overnight; activation, % at 9.1 µM; hit rate 1% among 370,000; AID 652017; in the data active means activation above about 7.8%;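 further: 0% = vehicle wells and 100% = reference activator wells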
NPR1 activator: GC-A (human) enzyme activation. P16066. HEK293 GC-A cells, cGMP TR-FRET, EC30 ANP; 0% at EC30 ANP, 100% saturating ANP. AID 1671463. activation, % at 10 µM. hit rate 0.14% among 370,000; in the data active means activation above about 40%
Rev-erbA mod: Rev-erb alpha (human) modulation; AID 1259318; P20393; activity, % at 10 µM; hit rate 0.79% among 370,000; Rev-erbα–FITC-DNA binding, fluorescence polarization, 90 min;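 active means activity above about 14%, limit read from the data; passing the limit was not always enough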;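 further: 0% = DMSO wells with 35 nM protein and 100% = DMSO wells with 750 nM protein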
rCAG binder: binds r(CAG) RNA repeats; inhibition, % at 3 µM; r(CAG) RNA repeat, TO-PRO-1 dye displacement fluorescence; AID 651821; hit rate 1.3% among 370,000;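 active means inhibition above the plate cutoff, the mean of all test compounds on that plate plus 3 SD, cut at about 35% in these data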;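 further: 0% = DMSO alone and 100% = 100 µM mitoxantrone as full dye displacement; higher means more dye released from RNA so lower well fluorescence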
GC-B act: GC-B (human) receptor activation; activation, % at 10 µM; hit rate 0.11% among 370,000; HEK293-GC-B cells, CNP EC30, cGMP TR-FRET; 0% at EC30 CNP, 100% saturating CNP; P20594;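 active means activation at 10 µM reaching about 35% in either raw or pattern-adjusted values, limit read from the data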
PG9 binder: binds the HIV-1 gp120 antibody PG9. hit rate 0.43% among 360,000. AID 624416. TR-FRET gp120-PG9 antibody binding. inhibition, % at 6.7 µM; in the data active means inhibition above about 8.5%
Numbers without * were called inactive. The list is partial; count on the stated rates, not on these rows.

No.	canonical_smiles	ASAP1 GAP inh	ARFGAP1 inh	mABHD4 FP	SMARCA2 act	NPR1 activator
1	CCCCC1=CC2=CC(=O)C(C)(OC(=O)CC)C(=O)C2=CN1c1ccc(OC)cc1 (centres undefined)	1	-2	16	-2	2
2	CSc1nnc2c(n1)[nH]c1c(C)cccc12	1	2	-3	1	-1
3	N#Cc1c(NC(=O)CSCC(=O)O)sc2c1CCCC2	-9	-5	-9	-3	2
4	O=C(O)c1cc(Nc2cc(Cl)c3nonc3c2[N+](=O)[O-])ccc1O	-11	-13	15	-2	3
5	COC(=O)[C@@H]1CC[C@@](C)(c2ccc(OC)cc2)C1(C)C	8	10	-11	0	2
6	CC(C)c1nc(SCC(=O)N2CCCC2)c2ccccc2n1	12	-2	-3	3	-2
7	Cc1cc2oc(=O)cc(CN3CCN(S(=O)(=O)c4cccs4)CC3)c2cc1C	7	6	-2	1	-4
8	O=C(NNC(=O)c1ccccc1-n1cccc1)c1ccc(Cl)nc1	0	4	3	1	1
9	Cc1ccc(-c2nn(-c3ccccc3)c3[nH]c(=O)c(CNCc4ccccc4)cc23)cc1	-3	-4	-3	1	7
10	Cc1cccc(C(=O)NCC(=O)NNC(=O)c2ccccc2O)c1	4	1	16	0	1
11	CC(C)(C)NC(=O)NC(=O)COC(=O)CCC1CCCC1	0	2	1	-2	-4
12	Cc1ccccc1SCC(=O)NNC(=O)c1ccccc1O	2	4	18	-1	4

No.	Rev-erbA mod	rCAG binder	GC-B act	PG9 binder
1	7	9	2	0.4
2	5	0	1	0.2
3	-2	2	2	-0.3
4	3	8	3	-1.9
5	8	-4	0	-2.9
6	-3	-8	-3	0.4
7	3	1	-8	-1.0
8	3	2	1	2.7
9	-5	26	-9	-1.6
10	-7	5	4	0.7
11	-3	-12	-4	-0.8
12	1	7	3	1.2

Further results:
No.	canonical_smiles	ASAP1 GAP inh	ARFGAP1 inh	mABHD4 FP	SMARCA2 act	NPR1 activator
13	CCc1nc2sc3c(c2c(=O)n1N)CCC3	-8	-11	-9	-4	-3
14	O=C(O)c1cc(Cl)c(Cl)cc1C(=O)N1CCCC1	-1	2	-11	1	1
15	CCc1nnc(NC(=O)C2(C)COC(c3ccccc3)OC2)s1 (centres undefined)	12	9	1	-1	-4
16	O=C(CSc1nnc(-c2ccccc2)n1Cc1ccccc1)NNC(=O)c1ccccc1O	2	0	14	-1	0
17	CC(C)CC(C(=O)N1CCOCC1)N1Cc2ccccc2C1=O (centres undefined)	-4	9	-2	-6	0
18	COc1ccc(-c2cc(-c3n[nH]c(=S)n3-c3cc(OC)ccc3OC)[nH]n2)cc1	10	1	4	-2	-8
19	CCN(CC)CCOCCOc1ccc(Cl)c2ccccc12	0	-4	9	-4	-5
20	CC(C)(C)C(=O)O/N=C1\CCS(=O)(=O)c2sccc21	-10	2	-1	0	3
21	CCOc1ccc2oc(C(=O)NNC(=O)c3ccccc3O)c(C)c2c1	-8	-1	9	1	0
22	CCc1ccc(N2C(=O)C3CCCN3C2=S)cc1 (centres undefined)	7	-2	0	-2	4
23	CCOC(=O)c1sc(NC(=O)Nc2ccccc2F)nc1C	13	3	-7	-2	-1
24	O=C(c1csc2ccccc12)n1cccn1	12	17	1	-4	5

No.	Rev-erbA mod	rCAG binder	GC-B act	PG9 binder
13	-3	2	1	-1.6
14	-2	1	-1	-1.1
15	2	-7	3	-2.0
16	-1	11	1	-0.9
17	-7	-3	0	2.6
18	-2	18	-11	0.7
19	1	-5	-5	-0.7
20	6	2	4	0.3
21	-3	30	-2	0.5
22	-2	-4	-1	-2.7
23	4	11	-5	1.9
24	2	0	0	0.3

Next section:
No.	canonical_smiles	ASAP1 GAP inh	ARFGAP1 inh	mABHD4 FP	SMARCA2 act	NPR1 activator
25	Cc1nc(NC(=O)CN2CCN(c3cccc(Cl)c3)CC2)sc1C(=O)N(C)C	4	0	5	-2	-2
26	Clc1ccc(-c2cnnc(-c3ccccn3)n2)cc1	0	0	6	5	-1
27	CS(=O)(=O)c1ccc(C(=O)OCC(=O)NC(=O)Cc2ccccc2)cc1	-15	14	3	-1	-1
28	O=C(NNS(=O)(=O)c1ccccc1F)c1ccccc1-n1cccc1	6	11	1	-1	-2
29	COc1ccccc1NC(=O)C1=C(C)Nc2nnnn2C1c1cccc(Br)c1 (centres undefined)	1	3	-2	-2	-11
30	COc1ccc2oc(/C=C/N(C)C)c(C(=O)c3ccc(Cl)cc3)c2c1	-2	-4	-18	-2	-27
31	O=C(Nc1ccnn1C1CCN(Cc2ccc(C#CCCO)cc2)CC1)c1cccc(F)c1	-14	-2	3	-1	0
32	COc1ccc(CNc2nc(NCc3ccc(OC)cc3)n(C(=O)c3ccccc3[N+](=O)[O-])n2)cc1	-1	-2	-10	1	3
33	O=C(c1ccco1)N1CCN(C(=O)C2CC(c3ccc(Cl)cc3)=NO2)CC1 (centres undefined)	16	3	0	-2	1
34	COC(=O)[C@H](C(C)C)N(Cc1ccccc1)S(=O)(=O)CCNC1CCCC1	-8	-11	6	-3	2
35	Cc1ccc(C2CC(=O)NC3=C2C(=O)CCC3)cc1Br (centres undefined)	-13	5	-2	1	-4
36	C=CCNC(=O)c1ccc(Sc2ccccc2)c([N+](=O)[O-])c1	12	4	0	1	1

No.	Rev-erbA mod	rCAG binder	GC-B act	PG9 binder
25	-4	-4	-2	-1.5
26	-3	-1	-4	-1.1
27	5	-5	3	1.6
28	0	1	6	-1.1
29	1	2	-15	-0.1
30	-1	40*	-16	0.3
31	-1	-6	2	0.6
32	-6	5	3	1.8
33	2	-5	0	-1.8
34	-5	-3	0	0.0
35	6	0	6	-1.3
36	-2	0	-3	-1.7

More records:
No.	canonical_smiles	ASAP1 GAP inh	ARFGAP1 inh	mABHD4 FP	SMARCA2 act	NPR1 activator
37	CCC(C)N1CCCCC1C(=O)Nc1c(C)cc(C)cc1C (centres undefined)	-2	-1	3	1	5
38	Cn1c(-c2cc3ccc(OC(=O)C(C)(C)C)cc3oc2=O)nc2ccccc21	-3	6	-1	0	9
39	C=CCc1ccccc1OCC(=O)N/N=C/c1ccc(OC(C)=O)cc1OC(C)=O	-9	5	-1	-2	-1
40	Cc1cc2ncc(-c3ncc(C(F)(F)F)cc3Cl)cn2n1	8	14	-14	0	-4
41	CCCCC1=CC2=CC(=O)C(C)(OC(=O)CC)C(=O)C2=CN1Cc1ccccc1 (centres undefined)	9	4	17	2	-3
42	CCN(Cc1ccccc1)C(=O)Cc1c[nH]c2ccccc12	2	-7	-3	-5	2
43	Cc1ccc(Nc2nc(N)[nH]c(=O)c2N=O)cc1	-12	4	7	-2	0
44	COc1ccc(N2CC(NC(=O)N3CCN(C(=O)c4ccco4)CC3)CC2=O)cc1OC (centres undefined)	18	7	-2	3	4
45	CC(=O)NC1C(=O)N=C(SCC(=O)Nc2sc3c(c2C#N)CCCCCC3)NC1=O (centres undefined)	8	2	8	-1	4
46	Clc1ccccc1-c1nc(-c2ccccc2)n[nH]1	-10	3	-6	6	6
47	COc1ccc(-c2nnc(-c3ccc(C)cc3)o2)cc1	9	4	0	3	-17
48	Nc1ccc(C(=O)Oc2ccc([N+](=O)[O-])cc2)cc1	2	12	-13	3	14

No.	Rev-erbA mod	rCAG binder	GC-B act	PG9 binder
37	5	-5	2	-2.4
38	-6	-5	8	1.6
39	0	-4	-10	-0.3
40	2	-5	-4	2.0
41	3	4	3	-4.0
42	4	4	-12	-0.1
43	-3	5	5	-6.3
44	-2	-4	-6	-1.7
45	-2	20	2	-0.1
46	1	-1	-4	-0.7
47	-5	0	-10	-1.3
48	2	2	-1	1.5

(listing goes on)
No.	canonical_smiles	ASAP1 GAP inh	ARFGAP1 inh	mABHD4 FP	SMARCA2 act	NPR1 activator
49	Cc1ccc(-c2c(NCCc3ccccc3)c(=O)c2=O)cc1	12	-9	3	-2	-7
50	CCOc1ccc(N2C(=O)CC(N(O)c3ccccc3)C2=O)cc1 (centres undefined)	3	11	6	7	2
51	COC(=O)C1=NN(c2ccccc2)C2C(=O)N(c3ccccc3OC)C(=O)C12 (centres undefined)	-4	-4	4	-1	-2
52	O=C(Nc1ccnn1C1CCN(C/C=C/c2ccccc2)CC1)c1cccc(F)c1	6	15	-1	1	-2
53	CC(=O)Nc1ccccc1-c1ccc(C)o1	-4	0	5	-1	2
54	O=S(=O)(Nc1ccc2c(c1)nc1n2CCOC1)c1ccc(Cl)cc1	3	-10	4	-1	-6
55	CC(C)CCN1CCN(C/C=C/c2ccco2)CC1CCO (centres undefined)	2	7	-1	-1	0
56	COc1cc(OC)c(C(=O)NNC(=O)c2ccccc2-n2cccc2)cc1OC	12	8	3	3	1

No.	Rev-erbA mod	rCAG binder	GC-B act	PG9 binder
49	-1	3	-3	0.8
50	-1	6	4	-2.7
51	8	1	-5	0.7
52	4	-3	-5	-1.3
53	-2	1	3	0.4
54	0	-1	-5	1.1
55	0	-2	2	-1.5
56	1	-1	2	-5.5

Profiles from above. Values in the order: ASAP1 GAP inh, ARFGAP1 inh, mABHD4 FP, SMARCA2 act, NPR1 activator, Rev-erbA mod, rCAG binder, GC-B act, PG9 binder
Cn1c(-c2cc3ccc(OC(=O)C(C)(C)C)cc3oc2=O)nc2ccccc21 across the screens: -3, 6, -1, 0, 9, -6, -5, 8, 1.6
Cc1cc2oc(=O)cc(CN3CCN(S(=O)(=O)c4cccs4)CC3)c2cc1C across the screens: 7, 6, -2, 1, -4, 3, 1, -8, -1.0
COc1ccc(-c2nnc(-c3ccc(C)cc3)o2)cc1 across the screens: 9, 4, 0, 3, -17, -5, 0, -10, -1.3
N#Cc1c(NC(=O)CSCC(=O)O)sc2c1CCCC2 across the screens: -9, -5, -9, -3, 2, -2, 2, 2, -0.3
CCOC(=O)c1sc(NC(=O)Nc2ccccc2F)nc1C across the screens: 13, 3, -7, -2, -1, 4, 11, -5, 1.9

Bioassay records deposited in PubChem BioAssay by several laboratories.
